Assay outcomes (PubChem BioAssay)
KCNQ2 pot – potentiators of rat KCNQ2 potassium channel. B-score at 10 µM. 310,000 compounds, 0.54% hits. O88943. CHO-K1 KCNQ2, FluxOR thallium flux fluorescence; hits give high values;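 active means fluorescence ratio B-score at least 3 SD of library B-scores, with initial fluorescence B-score within 3 SD, cut at about 5.3 in these data; same plate scores as AID 2156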;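 further: B-score of peak minus minimum over baseline fluorescence ratio after K+ and Tl+ stimulus; positive B-score means potentiation of KCNQ2 with more thallium influx and brighter signal; only the inactives scoring about 0 or higher are listed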
Target sequence (O88943 whole entry, looked up): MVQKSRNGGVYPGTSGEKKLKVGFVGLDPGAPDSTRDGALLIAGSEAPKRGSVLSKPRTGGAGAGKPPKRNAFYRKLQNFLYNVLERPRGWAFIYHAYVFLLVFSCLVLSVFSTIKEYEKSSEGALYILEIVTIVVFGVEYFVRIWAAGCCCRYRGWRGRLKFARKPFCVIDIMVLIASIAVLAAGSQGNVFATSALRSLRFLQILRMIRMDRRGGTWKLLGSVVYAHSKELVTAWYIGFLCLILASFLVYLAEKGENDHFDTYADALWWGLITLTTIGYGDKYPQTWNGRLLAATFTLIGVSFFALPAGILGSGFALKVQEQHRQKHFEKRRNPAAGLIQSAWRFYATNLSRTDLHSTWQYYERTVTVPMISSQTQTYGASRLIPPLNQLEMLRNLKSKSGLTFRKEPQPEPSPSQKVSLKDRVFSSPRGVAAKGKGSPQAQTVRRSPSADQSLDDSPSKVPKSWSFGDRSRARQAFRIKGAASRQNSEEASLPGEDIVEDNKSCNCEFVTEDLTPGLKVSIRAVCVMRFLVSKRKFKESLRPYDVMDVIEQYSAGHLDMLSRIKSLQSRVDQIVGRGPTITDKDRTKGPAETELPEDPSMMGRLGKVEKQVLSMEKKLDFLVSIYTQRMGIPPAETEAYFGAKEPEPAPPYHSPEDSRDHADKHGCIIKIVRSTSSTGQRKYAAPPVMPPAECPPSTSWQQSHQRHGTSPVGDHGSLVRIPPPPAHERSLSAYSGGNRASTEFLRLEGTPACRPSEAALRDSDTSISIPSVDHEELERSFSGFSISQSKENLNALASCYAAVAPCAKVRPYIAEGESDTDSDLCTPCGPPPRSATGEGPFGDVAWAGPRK
KCNQ2 pot baseline – also measured in KCNQ2 pot; calls as there; B-score; compound at 10 µM; measured here: initial fluorescence intensity artifact check;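 brightness before thallium and not channel activity; 0 = typical well and far values either way flag optical interference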
* hit, by the source's call.

SMILES	KCNQ2 pot	KCNQ2 pot baseline
CCOC(=O)N1CCN(Cc2nc(N)nc(Nc3ccc(OC)cc3)n2)CC1	0.15	0.58
CC1(C)CC(=O)C(C=NCCCN2CCCC2=O)=C(O)C1	0.74	0.73
O=Cc1cc(-c2ccccc2)[nH]c1-c1ccccc1	1.5	-1.4
COc1ccc(NC(=O)CCC2COc3ccccc3O2)c(OC)c1 (centres undefined)	4.3	-0.18
Cc1cccc2sc(NC(=O)CN3C(=O)NC4(CCCC4)C3=O)nc12	0.29	-1.6
Clc1c(Cl)c(Cl)c2n[nH]nc2c1Cl	0.58	1.3
Cc1ccc(NC(=S)N(CCN(C)C)C(C)c2cccnc2)cc1 (centres undefined)	1.5	1.8
CS(=O)(=O)N(CCc1ccccc1)CC(=O)Nc1ccccc1	0.51	-1.3
CC(CO)(CO)NCc1ccc(-c2ccccc2)cc1	0.46	0.01
COc1ccccc1NC(=O)Cn1c(CN2CCCCC2)nc2ccccc2c1=O	0.99	0.64
Cc1ccc2nc(Nc3ccc(C)c(Cl)c3)c3nncn3c2c1	3	0.14
Nc1ccc(Oc2ccc3c(c2)C(=O)N(CC2CCCO2)C3=O)cc1 (centres undefined)	0.16	-0.75
Cc1cc(=O)oc(C)c1C(=O)NCCN1CCOCC1	0.6	-1.1
O=C(CNC(=O)c1ccco1)N=Nc1c(O)[nH]c2ccc([N+](=O)[O-])cc12	0.37	-2.2
CCOCc1cc(CN2CCC(CCC(=O)NC3CC3)CC2)ccc1OC	0.59	0.34
CCCNC(=O)Cc1c(C)n(C(=O)c2ccc(Cl)cc2)c2ccc(OC)cc12	0.38	0.67
O=C(Nc1ccncc1)c1ccc2c(c1)C(=O)N(C1CCCCC1)C2=O	1.1	-2
COC(=O)c1cccc(NC(=O)c2ccccc2)c1	0.34	0.1
Cc1ccc(S(=O)(=O)N(CC(=O)O)Cc2ccco2)cc1	0.13	1.3
COc1ccc(NC(=S)NNC(=O)OC(C)(C)C)cc1OC	1.2	0.11
COc1ccc(OC)c(-n2c(=S)[nH]c3cc(C(=O)NCCCN4CCCC4=O)ccc3c2=O)c1	1	-1.3
CCN(CC)C(=O)c1cn(CC)c(=O)c2cc(OC)c(OC)cc12	0.37	0.56
C/C(=N\N1CCN(c2ccc(Cl)cc2)CC1)c1ccco1	0.52	0.53
O=C(COC(=O)C1CC2C=CC1C2)Nc1ccccc1 (centres undefined)	0.18	-0.75
COc1cccc(NC(=S)NC(=O)Cc2ccc(Cl)cc2)c1	0.31	0.23
O=c1oc(-c2cccs2)nc2sc3c(c12)CCCC3	0.09	0.16
CC(C)CCNS(=O)(=O)c1ccc(-c2ccc(S(=O)(=O)NCCC(C)C)cc2)cc1	1	-2.6
O=C(Nc1cccnc1)c1ccccc1F	1	-0.54
COc1ccc2[nH]cc(CCNC(=O)c3ccc4ccccc4n3)c2c1	0.41	-1.1
COc1ccc2oc(C(=O)NC3(C)CCS(=O)(=O)C3)c(C)c2c1 (centres undefined)	0.58	-0.76
Cc1ccc(/C=N/NC(=O)CCCOc2ccc(Cl)cc2Cl)cc1[N+](=O)[O-]	0.04	-1.7
Cc1ccc(-c2noc(CCC(=O)N3CCCC3)n2)cc1	0.64	1.5
C=CCn1c(SCC(=O)NC(=O)NCc2ccco2)nc2sc(C)c(C)c2c1=O	0.03	-0.14
COc1ccccc1-n1cnc2cc(C(=O)NC3CCCC3)ccc21	0.39	0.61
O=C(N/N=C/c1ccc(O)cc1)c1cc(-c2ccccc2)nc2ccccc12	0.3	-0.27
O=C(Nc1ccc2c(c1)OCO2)Nc1ccccn1	0.78	-0.63
Cc1ccc(-c2noc(CN3CCOCC3)n2)cc1	0.5	-0.17
CC1CCCN(C(=O)C2c3ccccc3C(=O)N3CCc4ccccc4C23)C1 (centres undefined)	0.34	-1.3
COc1ccc(NC(=O)CCCN(C)S(=O)(=O)c2ccc(C)cc2)cc1	0.55	-0.05
CC(=O)c1ccc(OCC(=O)NC2CCS(=O)(=O)C2)cc1 (centres undefined)	0.43	-0.15

The final 3 entries of the section above come first, to join the parts:
SMILES	KCNQ2 pot	KCNQ2 pot baseline
CC1CCCN(C(=O)C2c3ccccc3C(=O)N3CCc4ccccc4C23)C1 (centres undefined)	0.34	-1.3
COc1ccc(NC(=O)CCCN(C)S(=O)(=O)c2ccc(C)cc2)cc1	0.55	-0.05
CC(=O)c1ccc(OCC(=O)NC2CCS(=O)(=O)C2)cc1 (centres undefined)	0.43	-0.15
CC(C)(C)c1ccc(-c2nnc(SCC(=O)O)n2N)cc1	2	-0.16
CC(C)Oc1ccc(C(CC(=O)O)NC(=O)CSc2ncn[nH]2)cc1 (centres undefined)	1.1	-1.7
CNC(=O)CC1C(=O)N(C)C(=S)N1NC(=O)c1ccccc1 (centres undefined)	1.2	-0.13
O=C(CCc1ccccc1)NNC(=O)c1ccco1	1.5	0.77
CCCCCOC(=O)NCCOC(=O)Nc1ccc(C(=O)OCC)cc1	0.6	-0.47
CCOCc1nnc(NC(=O)c2ccco2)s1	0.67	0
CC1=C(C(=O)OC(C)C)C(C)NC(=O)N1 (centres undefined)	0.81	-0.23
CN(C)c1ccc(-c2nnn(CC(=O)NCc3ccc4c(c3)OCO4)n2)cc1	0.18	0.74
Cc1nn(Cc2noc(C(=O)NCC3CCCO3)n2)c(C)c1Br (centres undefined)	0.7	0.96
Clc1ccc(CSC2=NCCCN2)cc1Cl	2.7	0.96
CCc1ccc(NS(=O)(=O)c2cc3c(cc2C)n(C)c(=O)c(=O)n3C)cc1	1.6	-2.4
COc1ccc2nc(Cl)cc(Cl)c2c1	0.05	-0.06
CCOc1ccc(CN(C)C(=O)c2ccc3ccccc3n2)cc1	0.13	-0.39
COCCCNc1oc(-c2ccccc2Cl)nc1C#N	0.28	-0.38
COc1ccc(S(=O)(=O)N(CC(=O)NCc2ccncc2)c2cc(C)cc(C)c2)cc1OC	2.3	-0.3
CCN(CC(=O)NC1CCS(=O)(=O)C1)S(=O)(=O)c1ccccc1 (centres undefined)	0.51	-1.6
Cc1ccc(OCCCCN2CCc3ccccc3C2)cc1	2.4	0.69
NC(N)=NC(N)=Nc1ccc2ccccc2c1	1	-1.5
O=C(C1CC1)N1N=C(c2ccccc2)CC1(O)C(F)(F)C(F)(F)F (centres undefined)	0.72	0.94
CSc1ccc(CNC(=O)c2c(C)noc2C)s1	0.29	-1.1
Cc1cc(C)c[n+](C(C)C(=O)c2ccc(-c3ccccc3)cc2)c1 (centres undefined)	0.69	-0.16
CNC(=O)CC(=O)Nc1ccccc1C(=O)O	0.42	0.46
COc1ccc(C(=O)NCCS(=O)(=O)NCc2ccc(F)cc2)cc1	0.07	-0.92
Cc1ccc(C)c(OCC(O)CN2CCCCC2C)c1 (centres undefined)	1.6	-1.1
CCCc1nnc(NC(=O)CS(=O)(=O)c2ccc(C)cc2)s1	0.01	2.4
C/C(=N\Nc1c([N+](=O)[O-])c(C)nn1C)c1ccc(F)cc1F	0.05	-1.1
COc1ccc(Cl)cc1NC(=S)NCc1cccnc1	2	0.07
On1nnc2c3ccccc3c3ccccc3c21	0.09	2.2
Cc1ccc(NC(=O)CN2c3cccc4cccc(c34)S2(=O)=O)cc1S(=O)(=O)N1CCOCC1	0.08	1.8
CN1CCN(C(=O)CCn2c(=O)c3cccn3c3cccnc32)CC1	0.39	0.46
COc1ccccc1NCc1cc(=O)oc2c(C)c(O)ccc12	1.9	0.24
CC(C)Cn1c(N)c(C(=O)COC(=O)c2ccc3c(c2)OCCO3)c(=O)n(C)c1=O	2.4	0.01
O=[N+]([O-])c1ccc(Cl)c(/C=N/n2c(COc3ccccc3)n[nH]c2=S)c1	0.98	-0.97
Cn1c(SCC(=O)c2ccccc2)nnc1-c1ccc(O)cc1	0.82	-0.81
CC(=O)c1c(C)n(CC(=O)NCc2ccc3c(c2)OCO3)c2ccccc12	0.11	0.99
CS(=O)(=O)c1sc(C(=O)NC(=O)Nc2cccc(C(F)(F)F)c2)c2c1C=CCC2	1.3	-0.08
COC(=O)/C(=C\Nc1ccc(Oc2ccc(F)cc2F)nc1)NC(=O)c1ccccc1	0.32	0.31
CCOC1=NC(C(=O)O)c2ccccc2/C(=C(/C)Cl)N1 (centres undefined)	0.07	-0.06
Cc1ccc(CNC(=O)COc2ccc(S(=O)(=O)NC(C)C)cc2)cc1	0.01	2.3
CN(C)c1ncc([N+](=O)[O-])cc1C(F)(F)F	3.2	-0.64
CCCCN1C(=O)NC2NC(=O)NC21 (centres undefined)	1.6	0.4
CC1(C)CC(O)(CNCc2ccc3c(c2)OCO3)CCO1 (centres undefined)	0.24	1.3
O=C(CNS(=O)(=O)c1ccccc1)NCc1ccccn1	1.2	-0.74
COc1ccc(C(=O)NC(=S)N(C)Cc2ccccc2)cc1Br	0.15	-1.2
CCCCNC(=O)c1c(CSc2ccccc2)noc1C(=O)NCc1ccccc1	0.94	-0.07
CC(=O)N/N=C/c1cc2c(cc1[N+](=O)[O-])OCO2	1.2	1.4
CSc1ncc(Cl)c(C(=O)Nc2nnc(SC/C=C/c3ccccc3)s2)n1	5.5*	0.61*
CCc1ccc2c(CN3CCN(S(=O)(=O)c4ccc5c(c4)OCCO5)CC3)cc(=O)oc2c1	0.46	-1.4
O=C(CN1C(=O)c2ccccc2S1(=O)=O)NCCC1=CCCCC1	1.3	-0.23
O=C(/C=C/c1ccccc1Cl)NNC(=O)c1cccs1	0.04	-0.15
O=C(Nc1cccc(-n2cnnn2)c1)c1ccco1	0.23	-0.56
COc1ccc(CCNc2nnc(Sc3nnnn3-c3ccccc3)s2)cc1OC	1	-1.8
COc1cccc(NC(=O)COc2cccc3c2CCNC3=O)c1	2	-0.29
CCNc1nc(SC(C)C(=O)Nc2ccccc2)nc(N2CCOCC2)n1 (centres undefined)	0.37	0.58
O=S(=O)(c1ccc(-c2ccccn2)s1)N1CCC2(CC1)OCCO2	1.7	-1.2
COc1ccccc1Nc1nc(NCCCN(C)C)nc(N)c1[N+](=O)[O-]	0.19	-1.4
Nc1ccc2c(C(F)(F)F)cc(C(F)(F)F)nc2n1	1.3	0.43
COc1cccc(CNc2ccc(S(N)(=O)=O)cc2)c1OC	3.1	-2.4
O=C(NCCc1ccccc1)c1nccc2ccccc12	0.11	1.1
Cc1[nH]c2ccccc2c1C(=O)C(=O)NCCc1c[nH]c2ccccc12	2.3	-0.9
(cont.)
SMILES	KCNQ2 pot	KCNQ2 pot baseline
O=C(CCc1ccccc1)Nc1nn[nH]n1	0.04	0.52
COc1cc(CC(=O)N2CCC(n3nccc3NC(=O)C3CC3)CC2)cc(OC)c1OC	0.12	0.6
COCCNC(=O)c1cc2cc(Br)cc(Br)c2oc1=O	1.7	7.6
O=C(C/C=N\OCc1ccc([N+](=O)[O-])cc1)Nc1ccc(F)cc1F	1.4	-1.5
O=C(NCc1ccccn1)C(=O)N/N=C/c1ccc2c(c1)OCO2	0.82	0.85
O=C(C(=O)N1CCCC1)c1c[nH]c2ccccc12	0.75	-0.01
CCOc1ccc(CN(C)C(C)C(=O)NCc2ccccc2)cc1 (centres undefined)	0.14	1.2
COc1cccc(NCc2cc(=O)oc3cc(-c4ccccc4)c(O)cc23)c1	0.01	1.5
CCCNC(=O)NC(=O)CSc1nnc(-c2ccncc2)n1CC	0.38	-0.7
Cc1cc(N)ccc1N1CCCC1	4.5	-0.71
Cc1cc2[nH]ncc2cc1NC(N)=S	0.05	0.59
CCOC(=O)COc1ccc(C(=O)Nc2cccc(Cl)c2C)cc1	0.67	0.71
O=C(Nc1ccc(S(=O)(=O)N2CCOCC2)cc1)C1COc2ccccc2O1 (centres undefined)	0.74	-0.03
CCCN(C(=O)c1cc(CC)c(C)s1)c1c(N)n(Cc2ccccc2)c(=O)[nH]c1=O	0.32	-0.66
Cc1ccc(OCCCCN2CCCCC2)c(C)c1	0.92	0.31
CCc1ccc(OCC(=O)NNC(=O)CSc2nnc(-c3ccc(C)cc3)n2C)cc1	0.68	0.98
COc1ccc(CN2CCN(Cc3ccccc3F)CC2)cc1OC	0.18	-1.7
COc1cc(/C=C2\C(=O)NN(c3ccccc3)C2=O)cc([N+](=O)[O-])c1O	1.1	-0.55
COc1ccc(Nc2nnc(C)c3ccccc23)cc1C(N)=O	0.04	0
Cc1nn(-c2cc(Cl)ccc2Cl)c(C)c1C(=O)O	0.43	0.03

An excerpt from above in order of the KCNQ2 pot baseline value, ascending:
SMILES	KCNQ2 pot	KCNQ2 pot baseline
O=C(C/C=N\OCc1ccc([N+](=O)[O-])cc1)Nc1ccc(F)cc1F	1.4	-1.5
Cc1cc(N)ccc1N1CCCC1	4.5	-0.71
CCCNC(=O)NC(=O)CSc1nnc(-c2ccncc2)n1CC	0.38	-0.7
O=C(Nc1ccc(S(=O)(=O)N2CCOCC2)cc1)C1COc2ccccc2O1 (centres undefined)	0.74	-0.03
COc1ccc(Nc2nnc(C)c3ccccc23)cc1C(N)=O	0.04	0
COc1cc(CC(=O)N2CCC(n3nccc3NC(=O)C3CC3)CC2)cc(OC)c1OC	0.12	0.6
COc1cccc(NCc2cc(=O)oc3cc(-c4ccccc4)c(O)cc23)c1	0.01	1.5

(listing goes on)
SMILES	KCNQ2 pot	KCNQ2 pot baseline
COc1ccc(Cl)cc1NC(=O)CN(C)C(=O)c1n[nH]c2ccccc12	1.1	1.4
COC(=O)C1=C(CCc2ccccc2)NC(=O)NC1c1ccc([N+](=O)[O-])cc1 (centres undefined)	0.17	-0.42
CCCCc1nnc(NC(=O)c2oc3ccc(OC)cc3c2C)s1	0.77	-0.46
CN(CC(=O)Nc1cccc(F)c1)C(=O)CCSc1ccc(F)cc1	0.32	-0.03

Reformatted as a markdown table: entries from further up.
| molecule | KCNQ2 pot | KCNQ2 pot baseline |
| --- | --- | --- |
| COCCCNc1oc(-c2ccccc2Cl)nc1C#N | 0.28 | -0.38 |
| CCc1ccc2c(CN3CCN(S(=O)(=O)c4ccc5c(c4)OCCO5)CC3)cc(=O)oc2c1 | 0.46 | -1.4 |

An excerpt, so the mix of outcomes need not match the whole.
